# Compound activity (PubChem BioAssay)
# Yeast UUG start: yeast start codon fidelity modulation | S. cerevisiae UUG-firefly luciferase reporter, luminescence/redox ratio | activity score, % at 18.7 µM | 0.13% of 350,000 active;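 active = replicate mean at a twofold rise or more, about +100% in these data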;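 note: firefly luciferase made from a UUG start codon reports start codon fidelity; reporter light over untreated wells divided by growth signal over untreated wells; some hits fall short of that in this replicate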
# HIV Env fusion: inhibitors of HIV Env-mediated cell fusion. HeLa-JRFL Env/CEM21 cell fusion, luciferase. inhibition, % at 12.3 µM. 1.1% of 360,000 active. AID 651610;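 active = mean replicate inhibition score of at least 50 and every replicate individually at or above 50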;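 note: 0% = plate neutral controls and 100% = maraviroc near 300 nM; one replicate is shown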
# * = called active by the depositor; [ ] = dose if it differs, or a comment. Not all compounds are listed, so the mix of outcomes need not match the whole.
# The opening 4 records, ahead of the listing:
# Below each compound – Yeast UUG start | HIV Env fusion
COc1cccc(S(=O)(=O)N(C)C[C@@H]2Oc3ncc(C#CC(C)C)cc3C(=O)N([C@H](C)CO)C[C@@H]2C)c1
→ 1 | 30[16.7 µM]
CNC[C@@H]1Oc2c(NC(=O)C3CCOCC3)cccc2C(=O)N([C@@H](C)CO)C[C@H]1C
→ -13 | -14[16.7 µM]
C[C@@H]1CN([C@H](C)CO)S(=O)(=O)c2ccc(-c3cccnc3)cc2O[C@H]1CN(C)C(=O)CN(C)C
→ -7 | -9[16.7 µM]
CNC[C@H]1Oc2ccc(NC(=O)Nc3ccc(C(F)(F)F)cc3)cc2C(=O)N([C@H](C)CO)C[C@@H]1C
→ 10 | -1[16.7 µM]

# The listing, from the start:
# Below each compound – Yeast UUG start | HIV Env fusion
COc1cccc(S(=O)(=O)N(C)C[C@@H]2Oc3ncc(C#CC(C)C)cc3C(=O)N([C@H](C)CO)C[C@@H]2C)c1
→ 1 | 30[16.7 µM]
CNC[C@@H]1Oc2c(NC(=O)C3CCOCC3)cccc2C(=O)N([C@@H](C)CO)C[C@H]1C
→ -13 | -14[16.7 µM]
C[C@@H]1CN([C@H](C)CO)S(=O)(=O)c2ccc(-c3cccnc3)cc2O[C@H]1CN(C)C(=O)CN(C)C
→ -7 | -9[16.7 µM]
CNC[C@H]1Oc2ccc(NC(=O)Nc3ccc(C(F)(F)F)cc3)cc2C(=O)N([C@H](C)CO)C[C@@H]1C
→ 10 | -1[16.7 µM]
COc1ccc(CN(C)C[C@H]2OCCCC[C@H](C)Oc3ccc(NS(=O)(=O)c4ccc(C)cc4)cc3C(=O)N([C@@H](C)CO)C[C@@H]2C)cc1
→ 8 | -9[16.7 µM]
COc1ccc(CNC(=O)C[C@@H]2CC[C@@H](NC(=O)Nc3ccc4c(c3)OCO4)[C@@H](CO)O2)cc1
→ -6 | -3[16.7 µM]
C[C@@H]1CN([C@@H](C)CO)C(=O)c2cccc(NS(=O)(=O)c3ccc(F)cc3)c2O[C@H]1CN(C)C(=O)Nc1ccccc1
→ -3 | 10[16.7 µM]
COc1ccc(-c2ccc3c(c2)O[C@H](CN(C)C(=O)Nc2ccccc2F)[C@H](C)CN([C@@H](C)CO)S3(=O)=O)cc1
→ -13 | -47[16.7 µM]
COc1ccc(S(=O)(=O)Nc2ccc3c(c2)C(=O)N([C@H](C)CO)C[C@@H](C)[C@@H](CN(C)C(=O)Nc2cccc4ccccc24)OCCCC[C@@H](C)O3)cc1
→ -4 | 27[16.7 µM]
Cc1ccc(S(=O)(=O)N[C@H]2CC[C@H](CCNC(=O)C3CC3)O[C@@H]2CO)cc1
→ 11 | 3[16.7 µM]
O=C(NCC[C@H]1CC[C@H](NC(=O)C2CCC2)[C@H](CO)O1)c1cnccn1
→ -4 | 37[16.7 µM]
COc1ccc(S(=O)(=O)Nc2ccc3c(c2)C(=O)N([C@@H](C)CO)C[C@H](C)[C@@H](CN(C)C(=O)CCC(F)(F)F)OCCCC[C@H](C)O3)cc1
→ 19 | 18[16.7 µM]
C[C@@H]1CN([C@@H](C)CO)C(=O)Cc2cc(NC(=O)Nc3ccccc3)ccc2O[C@@H]1CN(C)C(=O)Nc1cccc2ccccc12
→ 8 | 2[16.7 µM]
CC(C)c1cn(CC[C@H]2CC[C@@H](NS(=O)(=O)Cc3ccccc3)[C@H](CO)O2)nn1
→ -5 | 3[16.7 µM]
COc1ccc(NC(=O)Nc2ccc3c(c2)C(=O)N([C@@H](C)CO)C[C@H](C)[C@@H](CN(C)Cc2ccc4c(c2)OCO4)OCCCC[C@@H](C)O3)cc1
→ 75 | -23[16.7 µM]
CCC(=O)Nc1ccc2c(c1)C(=O)N(C)C[C@H](OC)[C@@H](C)CN(Cc1ccccc1)[C@H](C)CO2
→ 5 | 16[16.7 µM]
Cc1ccc(S(=O)(=O)N(C)C[C@H]2OCCCC[C@@H](C)Oc3ccc(NS(=O)(=O)c4ccc(Cl)cc4)cc3C(=O)N([C@@H](C)CO)C[C@@H]2C)cc1
→ -2 | -21[16.7 µM]
C[C@@H]1CN([C@@H](C)CO)S(=O)(=O)c2ccc(-c3ccccc3)cc2O[C@H]1CN(C)Cc1ccccc1
→ 8 | 55*[16.7 µM]
C[C@@H]1CN([C@@H](C)CO)C(=O)c2cc(NS(=O)(=O)c3cn(C)cn3)ccc2O[C@@H](C)CCCCO[C@H]1CN(C)C(=O)Cc1ccccc1
→ 6 | -10[16.7 µM]
C[C@@H]1CN([C@H](C)CO)C(=O)Cc2cc(NC(=O)NC3CCCCC3)ccc2O[C@H]1CN(C)C(=O)Nc1cccc2ccccc12
→ 7 | -7[16.7 µM]
C[C@H]1CN([C@@H](C)CO)C(=O)c2cccc(NS(=O)(=O)c3cccs3)c2O[C@@H]1CN(C)Cc1ccccc1
→ -4 | 2[16.7 µM]
COc1ccc(S(=O)(=O)Nc2ccc3c(c2)C(=O)N([C@@H](C)CO)C[C@H](C)[C@@H](CN(C)S(C)(=O)=O)O3)cc1
→ -6 | 6[16.7 µM]
C[C@@H]1CN([C@@H](C)CO)S(=O)(=O)c2ccc(/C=C/c3ccccc3)cc2O[C@@H]1CN(C)C(=O)Nc1ccc(F)cc1
→ -25 | 0[16.7 µM]
Cc1noc(C)c1NC(=O)Nc1ccc2c(c1)CC(=O)N([C@@H](C)CO)C[C@@H](C)[C@@H](CN(C)C(=O)NC1CCCCC1)O2
→ -11 | 6[16.7 µM]
CC(C)NC(=O)N(C)C[C@@H]1Oc2ncc(-c3cncnc3)cc2C(=O)N([C@H](C)CO)C[C@@H]1C
→ -6 | -8[16.7 µM]
C[C@@H]1CN([C@H](C)CO)C(=O)Cc2cc(NS(=O)(=O)c3ccc(Cl)cc3)ccc2O[C@@H]1CN(C)S(=O)(=O)c1ccc(F)cc1
→ 11 | 1[16.7 µM]
CCCc1cn(CC[C@@H]2CC[C@H](NC(=O)Nc3ccccc3F)[C@@H](CO)O2)nn1
→ 33 | 1[16.7 µM]
C[C@@H]1CN([C@H](C)CO)C(=O)Cc2cc(NC(=O)Nc3ccc(F)cc3)ccc2O[C@H]1CN(C)S(=O)(=O)c1ccc(Cl)cc1
→ -8 | 4[16.7 µM]
COc1ccc(S(=O)(=O)Nc2ccc3c(c2)C(=O)N([C@@H](C)CO)C[C@H](C)[C@@H](CN(C)C(=O)Nc2ccc(C(F)(F)F)cc2)OCCCC[C@@H](C)O3)cc1
→ -6 | 9[16.7 µM]
O=C(C[C@H]1C[C@H]2c3cc(NC(=O)Nc4ccc(F)cc4)ccc3O[C@H]2[C@@H](CO)O1)NC1CCCCC1
→ -9 | 7[16.7 µM]
CCCNC(=O)N(C)C[C@@H]1Oc2ncc(-c3ccc(C(=O)N(C)C)cc3)cc2C(=O)N([C@H](C)CO)C[C@H]1C
→ -5 | -5[16.7 µM]
CCS(=O)(=O)N[C@@H]1CC[C@H](CC(=O)NC2Cc3ccccc3C2)O[C@H]1CO
→ -9 | 29[16.7 µM]
C[C@@H]1CN([C@@H](C)CO)C(=O)c2cc(NC(=O)Nc3ccc(C(F)(F)F)cc3)ccc2O[C@@H](C)CCCCO[C@@H]1CN(C)Cc1ccccc1
→ 7 | 44[16.7 µM]
Cc1noc(C)c1NC(=O)N(C)C[C@H]1OCCCC[C@@H](C)Oc2ccc(NS(=O)(=O)c3cn(C)cn3)cc2C(=O)N([C@@H](C)CO)C[C@H]1C
→ -12 | -10[16.7 µM]
C[C@H]1CN([C@@H](C)CO)C(=O)Cc2cc(NS(C)(=O)=O)ccc2O[C@H]1CN(C)S(=O)(=O)c1cn(C)cn1
→ 4 | -11[16.7 µM]
C[C@@H]1CN([C@H](C)CO)C(=O)Cc2cc(NC(=O)CCCCCC(=O)Nc3ccccc3N)ccc2O[C@H]1CN(C)S(=O)(=O)c1ccccc1
→ 19 | -7[16.7 µM]
O=C(C[C@H]1CC[C@H](NC(=O)Cc2cccnc2)[C@H](CO)O1)NCc1ccc2c(c1)OCO2
→ -14 | -5[16.7 µM]
C[C@H]1CCCCO[C@H](CN(C)S(=O)(=O)c2ccc(Cl)cc2)[C@@H](C)CN([C@@H](C)CO)C(=O)c2cc(NC(=O)Cc3ccccc3)ccc2O1
→ 4 | 8[16.7 µM]
CCNC(=O)C[C@@H]1CC[C@@H]2[C@@H](COc3ccc(NC(=O)c4ccc5c(c4)OCO5)cc3C(=O)N2C)O1
→ 4 | 6[16.7 µM]
CCCNC(=O)Nc1ccc2c(c1)C(=O)N(C)[C@H]1CC[C@@H](CC(=O)NCC3CCCCC3)O[C@H]1CO2
→ 1 | 10[16.7 µM]
C[C@@H]1CCCCO[C@H](CN(C)C(=O)Nc2ccc(F)cc2)[C@@H](C)CN([C@@H](C)CO)C(=O)c2cc(NS(C)(=O)=O)ccc2O1
→ 13 | -84[16.7 µM]
C[C@H]1CN([C@@H](C)CO)C(=O)c2cccc(NC(=O)Nc3ccccc3)c2O[C@H]1CN(C)CC1CCCCC1
→ -6 | -14[16.7 µM]
CS(=O)(=O)N1[C@@H](C#N)[C@H](c2ccc(C#CC3CCCCC3)cc2)[C@@H]1CO
→ -2 | 11[16.7 µM]
O=C(NCC[C@H]1CC[C@@H](NC(=O)C2CCC2)[C@H](CO)O1)c1cnccn1
→ 0 | 21[16.7 µM]
Cc1ccc(S(=O)(=O)Nc2ccc3c(c2)C(=O)N([C@H](C)CO)C[C@@H](C)[C@@H](CN(C)Cc2ccccc2)OCCCC[C@@H](C)O3)cc1
→ 13 | 21[16.7 µM]
C[C@H](CO)N1C[C@H](C)[C@H](CN(C)CC2CCCCC2)Oc2ccc(NC(=O)Cc3cn(C)c4ccccc34)cc2CC1=O
→ -4 | -8[16.7 µM]
C[C@H](CO)N1C[C@H](C)[C@H](CN(C)S(=O)(=O)c2ccc(F)cc2)Oc2ccc(NC(=O)Cc3cn(C)c4ccccc34)cc2CC1=O
→ -1 | 56*[16.7 µM]
O=C(NC1CCCC1)N[C@@H]1C=C[C@H](CC(=O)N2CCOCC2)O[C@H]1CO
→ -15 | 14[16.7 µM]
O=C(C[C@@H]1C[C@H]2c3cc(NC(=O)C4CCC4)ccc3O[C@H]2[C@H](CO)O1)NCC(F)(F)F
→ 13 | 93*[16.7 µM]
CC(C)C#Cc1ccc2c(c1)O[C@H](CN(C)S(C)(=O)=O)[C@H](C)CN([C@H](C)CO)S2(=O)=O
→ 10 | 3[16.7 µM]
C[C@@H]1CN([C@@H](C)CO)S(=O)(=O)c2ccc(C#CC3CC3)cc2O[C@@H]1CN(C)C(=O)c1ccccn1
→ -13 | 4[16.7 µM]
C[C@H](CO)N1C[C@H](C)[C@H](CN(C)C(=O)CN(C)C)Oc2cc(-c3ccccc3)ccc2S1(=O)=O
→ 35* | -30[16.7 µM]
C[C@@H]1CCCCO[C@@H](CN(C)S(=O)(=O)c2cn(C)cn2)[C@H](C)CN([C@H](C)CO)C(=O)c2cc(N(C)C)ccc2O1
→ -1 | -9[16.7 µM]
C[C@@H]1CN([C@H](C)CO)S(=O)(=O)c2ccc(-c3ccc(C#N)cc3)cc2O[C@@H]1CN(C)C(=O)C1CC1
→ 13 | -28[16.7 µM]
C[C@H](O)C#Cc1ccc2c(c1)O[C@H](CN(C)Cc1cccnc1)[C@@H](C)CN([C@@H](C)CO)S2(=O)=O
→ -4 | -11[16.7 µM]
O=C(C[C@H]1C=C[C@H](NC(=O)c2ccncc2)[C@@H](CO)O1)NCCc1ccncc1
→ 13 | -7[16.7 µM]
C[C@@H]1CN([C@H](C)CO)S(=O)(=O)c2ccc(-c3ccc(F)cc3)cc2O[C@H]1CN(C)C(=O)C1CC1
→ 11 | -5[16.7 µM]
C[C@@H]1CCCCO[C@@H](CN(C)S(=O)(=O)c2cn(C)cn2)[C@@H](C)CN([C@@H](C)CO)C(=O)c2cc(NC(=O)Nc3ccc4c(c3)OCO4)ccc2O1
→ -2 | 18[16.7 µM]
N#C[C@H]1[C@H](c2ccc(C3=CCCCC3)cc2)[C@@H](CO)N1C(=O)c1ccccn1
→ 0 | 12[16.7 µM]
CC(C)C#Cc1ccc2c(c1)O[C@H](CN(C)C(=O)CN(C)C)[C@@H](C)CN([C@@H](C)CO)S2(=O)=O
→ 16 | 4[16.7 µM]

# Other entries follow.
# Below each compound – Yeast UUG start | HIV Env fusion
CCS(=O)(=O)NCC[C@@H]1CC[C@@H](NC(=O)Cc2ccccn2)[C@@H](CO)O1
→ 10 | 2[16.7 µM]
C[C@@H]1CCCCO[C@H](CN(C)Cc2ccc(C(=O)Nc3ccccc3N)cc2)[C@@H](C)CN([C@H](C)CO)C(=O)c2cc(NS(=O)(=O)c3ccc(F)cc3)ccc2O1
→ 4 | 5[16.7 µM]
C[C@H]1CN([C@@H](C)CO)C(=O)c2cccc(NS(=O)(=O)c3cn(C)cn3)c2O[C@H]1CN(C)Cc1ccc(C(=O)O)cc1
→ -17 | 9[16.7 µM]
COc1ccc(S(=O)(=O)N(C)C[C@H]2Oc3c(NC(=O)c4ccc(-c5nccs5)cc4)cccc3C(=O)N([C@@H](C)CO)C[C@@H]2C)cc1
→ 3 | 5[16.7 µM]
CC(C)NC(=O)N(C)C[C@H]1OCCCC[C@@H](C)Oc2ccc(NC(=O)Nc3ccc(C(F)(F)F)cc3)cc2C(=O)N([C@H](C)CO)C[C@@H]1C
→ 4 | 20[16.7 µM]

# Whole records from above.
# COc1ccc(S(=O)(=O)Nc2ccc3c(c2)C(=O)N([C@@H](C)CO)C[C@H](C)[C@@H](CN(C)S(C)(=O)=O)O3)cc1 reads Yeast UUG start: -6; HIV Env fusion: 6[16.7 µM]
# CC(C)C#Cc1ccc2c(c1)O[C@H](CN(C)C(=O)CN(C)C)[C@@H](C)CN([C@@H](C)CO)S2(=O)=O reads Yeast UUG start: 16; HIV Env fusion: 4[16.7 µM]
